Screening data: PubChem, National Center for Advancing Translational Sciences (NCATS)
miR-21 FLuc: miR-21 reporter, rising signal; Potency, µM (top dose mostly 38.3 µM), inactives show at the highest dose reporter change, positive = more light; 340,000 tested, under 10 active; HeLa miR-21 FLuc reporter, luciferase, 48 h; AID 2288; active = well fitted rising curve with a large enough effect; inconclusive = small, poorly fitted or top-dose-only effect; inactive = no such curve, though single readings can be large or run the other way;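 note: % of control where 0% means no effect; miR-21 action dims this reporter so a rising signal means less miR-21 action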
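Using DMEM plus 10% FBS, HeLa miR-21-FLuc cells are incubated with test compounds (final up to about 40uM) for 48 hours; firefly luciferase signal is then imaged following reagent-mediated lysis.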
Rango-impB inh: prevents formation of the Rango-importin beta complex; Q14974; Rango CFP/YFP FRET sensor + importin beta, 45 min; Potency, µM (series often up to 92.2 µM), for the others: top-dose inhibition of complex formation; 340,000 tested, 0.031% active; AID 540263; active = rising FRET ratio curve, often small or poorly fitted; inconclusive = mostly compound fluorescence or quenching in the first reads; inactive = flat curves in all reads;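 note: potency is the fitted concentration of half-maximal effect; 0% = DMSO wells and 100% = buffer wells lacking importin beta; nearly all actives have a fitted effect of over 15% in size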
Target sequence (Q14974 whole entry, looked up): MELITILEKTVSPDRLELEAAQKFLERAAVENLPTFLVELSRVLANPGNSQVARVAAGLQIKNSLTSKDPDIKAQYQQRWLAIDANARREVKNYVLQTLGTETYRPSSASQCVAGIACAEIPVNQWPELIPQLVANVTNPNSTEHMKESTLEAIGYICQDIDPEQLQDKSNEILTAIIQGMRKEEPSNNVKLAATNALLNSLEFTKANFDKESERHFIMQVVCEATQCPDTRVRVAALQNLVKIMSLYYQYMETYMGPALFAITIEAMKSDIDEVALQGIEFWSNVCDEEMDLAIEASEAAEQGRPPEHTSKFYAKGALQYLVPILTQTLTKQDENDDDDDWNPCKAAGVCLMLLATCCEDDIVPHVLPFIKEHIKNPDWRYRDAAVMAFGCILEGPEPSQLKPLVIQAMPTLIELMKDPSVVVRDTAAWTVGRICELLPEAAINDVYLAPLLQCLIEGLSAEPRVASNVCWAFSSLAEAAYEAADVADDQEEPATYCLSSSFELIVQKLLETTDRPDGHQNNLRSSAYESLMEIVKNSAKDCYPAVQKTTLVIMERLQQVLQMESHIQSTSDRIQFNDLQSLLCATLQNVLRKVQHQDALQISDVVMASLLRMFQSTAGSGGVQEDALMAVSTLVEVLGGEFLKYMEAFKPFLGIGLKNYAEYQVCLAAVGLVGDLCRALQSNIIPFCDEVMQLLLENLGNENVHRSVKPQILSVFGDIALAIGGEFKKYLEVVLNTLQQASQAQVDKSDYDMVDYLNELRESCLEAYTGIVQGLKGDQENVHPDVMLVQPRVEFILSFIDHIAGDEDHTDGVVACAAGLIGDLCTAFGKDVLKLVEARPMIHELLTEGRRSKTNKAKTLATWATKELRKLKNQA
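Inhibition scored from the CFP 486 nm/YFP 530 nm FRET ratio 45 min after adding 0.125 microM importin beta to 50 nM Rango biosensor preincubated 5 min with compound (room temperature, PBS with DTT, Tween-20, BSA). No-importin wells as positive control.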
Rango release inh: inhibitors of RanGTP-induced Rango-importin beta complex dissociation; AID 540253; 340,000 tested, 0.071% active; Potency, µM (highest dose often 46.1 µM), for inactives: top-dose activity change, negative = inhibition; O95149+P62826; Biochemical FRET Rango-importin beta, RanGTP-induced dissociation; active means falling FRET ratio curve, often poorly fitted, with flat reads before Ran was added; inconclusive means other falling curves, or compound fluorescence or quenching; inactive means flat or rising ratio curve;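 note: potency is the fitted concentration of half-maximal effect; % of control where 0% means no effect; nearly all actives have a fitted effect of over 45% in size; -100% = wells without RanGTP and RCC1; the record marks most hits as doubtful in a second field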
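Recombinant Rango FRET biosensor (EYFP–snurportin 1 IBB–cerulean CFP10) at 0.1 uM premixed with 0.25 uM importin beta in PBS, 1 mM DTT, 0.02% Tween-20, 0.1% BSA. Compound added 5 min; RanGTP-RCC1 (0.6 uM Ran, 2 mM GTP, 0.2 uM RCC1) then triggers release, read at 45 min.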
GLA inh pH 4.5: inhibitors of human alpha-galactosidase A at pH 4.5; 230,000 tested, under 10 active; P06280; activity change, negative = inhibition, % at 105 µM; AID 1467; purified enzyme, 4-MU-alpha-Gal fluorescence, pH 4.5; inconclusive = small, poorly fitted or top-dose-only inhibition, or a rising curve; inactive = flat fitted curve, though single readings scatter; no compound was filed as active;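 note: 0% = full activity with enzyme and -100% = basal without enzyme; dose as in the result columns while the protocol names 77 µM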
* = called active by the depositor; u = inconclusive; x = no result given; [ ] = dose if it differs, or a comment.

Values run as follows: Rango-impB inh | GLA inh pH 4.5 | Rango release inh | miR-21 FLuc
COc1ccc(CNC(=O)c2noc3c2CCCC3)cc1
    2.2% | -1.1 | 1.3% | -39.0%
O=C(Cn1nnc2ccccc2c1=O)N[C@H](C(=O)O)c1ccccc1
    3.8% | 2.9 | 29.5% | -0.3%
COc1ccc2oc(C(=O)OCC(=O)NCCN3C(=O)CSC3=O)c(C)c2c1
    -2.7% | 3.5 | -3.8% | -37.8%
Cc1cccc(C(=O)NCCNC(=O)c2cccc(C)c2)c1
    -4.3% | -5.7 | -3.7% | -7.2%
CCCc1nc2ccccc2n1CCOc1ccccc1
    u | -3.1 | 3.7% | -11.8%
Cn1c2c(c(=O)n(C)c1=O)CN(Cc1ccc(F)cc1)CN2
    -3.8% | -8.6 | -2.0% | -6.2%
Cc1ccc(S(=O)(=O)NC(C)C(=O)NC2CCCCCC2)cc1 (configuration not stated)
    3.1% | 0.2 | 5.8% | -4.1%
Cc1cccc(NC(=O)CN2C(=O)N/C(=C\c3ccc(-c4cccc(C(=O)O)c4)o3)C2=O)c1
    u | -0.7 | u | -10.6%
COc1ccc(N2CCN(C(=O)CNC(=O)c3cn(-c4ccccc4OC)c(=O)c4ccccc34)CC2)cc1
    -0.3% | -1.7 | -2.0% | -0.9%
O=C(CSc1nnc(COc2ccccc2)n1-c1ccccc1)c1ccccc1
    -0.3% | 4.3 | 8.4% | -17.8%
O=C1NC(c2cc3c(cc2Cl)OCO3)Oc2ccccc21 (configuration not stated)
    -1.6% | 5.6 | 0.3% | 0.2%
O=C(CCCC(=O)Nc1ccccc1Br)N/N=C/c1c(F)cccc1Cl
    -2.3% | x | 9.1% | 8.1%
O=C(Nc1ccc(O)cc1)/C(=C\c1cccs1)NC(=O)c1ccccc1
    -0.3% | -2.8 | 3.6% | -1.8%
COc1ccc(NC(=O)/C=C/C(=O)O)cc1Cl
    6.9% | 8.3 | 0.2% | -13.8%
CCCCOc1ccc(N(CC(=O)NC2CCCCC2)C(=O)CCC(=O)Nc2ccccn2)cc1
    -1.5% | x | -3.0% | 1.2%
CC1=N/C(=C\c2ccc([N+](=O)[O-])cc2)C(=O)N1c1ccc(Br)c(C)c1
    1.3% | -20.5 | 8.3% | -11.1%
CC(c1ccccn1)N(Cc1ccco1)C(=S)Nc1cccc(F)c1 (configuration not stated)
    4.5% | -10.2[21.1 µM] | 0.4% | -0.3%
Cc1c(/C=N/NC(=O)C(C)(C)Oc2ccc(Cl)cc2)cnn1C
    -0.1% | -1.0 | 8.6% | 0.7%
CCn1c(=O)c2c(cnn2C)c2ccccc21
    -0.6% | 3.1 | -19.3% | 15.2%
O=C(COc1ccc(Cl)cc1Cl)NC(=S)N1CCCc2ccccc21
    1.7% | -1.8 | u | -19.6%
Cc1ccsc1CN(C)C(=O)c1ccc(Oc2ccccc2)cc1
    -1.1% | x | -1.3% | 0.0%
CNc1ccc(/C=C/C(=O)c2cccc3ccccc23)cc1[N+](=O)[O-]
    5.4% | -2.3 | 14.9% | -3.9%
Cc1ccc(NC(=O)Cc2cc(C(=O)O)c3ccccc3n2)c(C)c1
    -0.1% | 6.4 | -19.1% | 29.0%
O=C(O)C1CCN(c2nc(-c3ccccc3)nc3c2oc2ccccc23)CC1
    -0.3% | -2.5 | -16.3% | 14.5%
Cc1ccc(S(=O)(=O)N2CCN(C(=O)c3c(-c4ccccc4)noc3C)CC2)cc1
    u | x | -21.9% | -1.2%
COc1ccccc1NC(=O)CSc1nnnn1C
    -3.0% | -6.4 | 0.2% | -1.6%
COc1cccc(NC(=O)CN(C)C(=O)c2cc(C)on2)c1
    5.1% | x | 5.9% | x
C=CCn1c(=O)n(CCOC)c(=O)c2sc3ccccc3c21
    1.6% | 9.5 | -5.2% | -11.3%
Cc1ccnc(NS(=O)(=O)c2ccc(NC(=O)C34CC5CC(CC(C5)C3)C4)cc2)n1
    1.5% | -1.3 | 0.4% | -22.1%
CCOC(=O)c1c(NC(=O)CSc2nc3ccccc3o2)sc(C(C)=O)c1C
    -0.3% | -5.7 | -12.6% | -8.9%
COC(=O)C1CC(O)CN1C(=O)Nc1cccc(C(F)(F)F)c1 (configuration not stated)
    0.3% | 5.1 | 29.9% | -0.4%
Cc1cccc(NC(=O)c2nc[nH]c2C(=O)NCCCCCNC(=O)OC(C)(C)C)c1
    0.5% | x | -4.5% | x
O=C(COC(=O)c1ccc(Cl)nc1)Nc1c(Cl)cccc1C(F)(F)F
    -0.8% | x | 20.9% | x
CCN1CCCC1CNC(=O)c1ccc2c(c1)NC(=O)/C(=C\c1ccc(OC)c(OC)c1)S2 (configuration not stated)
    1.7% | x | -5.2% | -29.0%
N#CC1=C(SCC(=O)c2ccc(Br)cc2)NC2=C(C(=O)CCC2)C1c1ccco1 (configuration not stated)
    u | -12.9 | u | 19.0%
O=C(Nc1cccc(-c2nnc(-c3ccccc3)o2)c1)C1CCCO1 (configuration not stated)
    -2.5% | -3.3 | -4.9% | -14.0%
CN1CCC(=NNC(=O)c2cc(-c3ccc(Cl)cc3)n[nH]2)CC1
    -1.2% | 0.0 | 13.5% | -2.6%
CCCCn1cnc2c(cnn2-c2ccc(Cl)cc2)c1=O
    -1.3% | -0.8 | 13.7% | -16.5%
CCn1c(SC)nnc1-c1ccc(S(=O)(=O)N2CCCCC2)cc1
    -0.5% | x | 1.5% | x
Nc1c(N(Cc2ccco2)C(=O)COc2ccccc2F)c(=O)[nH]c(=O)n1Cc1ccccc1
    u | x | 7.2% | x
COc1cc2c(cc1OC)CN(C(=O)c1ccc(S(=O)(=O)N3CCCCC3)cc1)CC2
    -1.5% | -0.1 | -0.1% | -5.7%
COc1ccc(CN(C)C(C)C(=O)Nc2ccc(S(=O)(=O)N3CCOCC3)cc2)c(OC)c1 (configuration not stated)
    1.4% | -5.7 | 2.9% | -12.0%
O=C(Cc1ccc2cccnc2c1)c1ccc(O)cc1O
    0.5% | -1.9 | 3.8% | -33.4%
CCN(CC)CC(O)CCCCCCCCC(=O)OC (configuration not stated)
    -1.1% | 2.9 | -1.2% | -0.3%
COc1cc2ccccc2cc1C(=O)O
    0.7% | -6.3 | -9.9% | -1.5%

2 successive compounds out of the list so far:
Values run as follows: Rango-impB inh | GLA inh pH 4.5 | Rango release inh | miR-21 FLuc
CCN(CC)CC(O)CCCCCCCCC(=O)OC (configuration not stated)
    -1.1% | 2.9 | -1.2% | -0.3%
COc1cc2ccccc2cc1C(=O)O
    0.7% | -6.3 | -9.9% | -1.5%

Other records.
Values run as follows: Rango-impB inh | GLA inh pH 4.5 | Rango release inh | miR-21 FLuc
C/C=C(/C(=C/C)c1ccc(O)cc1)c1ccc(O)cc1
    3.1% | -12.8 | -6.8% | 11.3%
Cc1cc(C)c2nc(C(F)(F)F)c(C#N)c(N)c2c1
    0.1% | -6.2 | 1.1% | 0.7%
CCSc1nnc(NC(=O)CSc2nnc(CNC(=O)c3ccccc3F)o2)s1
    3.5% | 3.5 | -10.4% | -4.4%
COc1ccc(-n2c(C)nc3cc(C(=O)NCc4ccc5c(c4)OCO5)ccc32)cc1
    3.8% | -9.3 | -0.6% | -1.6%
Cc1ccc(-c2noc(CCC(=O)NC3CCN(Cc4ccccc4)CC3)n2)cc1
    1.4% | -7.0 | 3.7% | 4.5%
CCN(CC)C(=O)CSc1nnc(-c2ccccc2)o1
    0.8% | 2.6 | 1.3% | -39.6%
COc1ccccc1NC(=O)CCc1nnc2ccc(N3CCN(C)CC3)nn12
    -2.3% | x | 8.5% | -3.1%
CCOC(=O)N1CCN(C(=O)COc2cccc3c2CCN(Cc2ccccc2F)C3=O)CC1
    3.4% | -7.7 | 16.9% | 16.4%
N#CC(C(=O)OCc1ccccc1)c1nc2ccccc2nc1N1CCOCC1 (configuration not stated)
    u | -9.0 | u | -13.1%
CCC(=O)N(Cc1cc2cc(OC)ccc2[nH]c1=O)c1ccc(C)cc1C
    1.4% | 0.8 | 0.6% | -15.5%
CCOC(=O)c1sc(NC(C)=O)cc1C
    -1.6% | 2.4 | -26.6% | -8.4%
COc1ccc(NC(=O)CN(C)CC(=O)Nc2ccccc2SC)cc1Cl
    0.3% | -14.0 | 1.2% | -16.0%
COc1ccc(C(=O)N(Cc2ccccc2)Cc2cc3cc4c(cc3[nH]c2=O)OCCO4)cc1
    -2.2% | -6.2 | -4.6% | -0.5%
Cc1ccc(NC(=O)COC(=O)C2C3CC4OC(=O)C2C4C3)cc1 (configuration not stated)
    -0.2% | x | 10.3% | -4.5%
CCn1cc([N+](=O)[O-])c(C(=O)N2N=C(c3ccc4ccccc4c3)CC2c2cc(Br)ccc2O)n1 (configuration not stated)
    5.4% | -9.2 | 10.3% | u
COc1ccc2c(c1)cc(C(=O)N[C@H](C(=O)N1CCC(C(=O)O)CC1)C(C)C)n2C
    -1.6% | x | -10.9% | -8.4%
Cc1ccccc1Nc1nc(N)nc(CSc2n[nH]c(N)n2)n1
    -0.2% | 2.1 | -16.8% | 3.0%
COc1ccc(/C=N/n2cnnc2)cc1Cn1nc(C)c([N+](=O)[O-])c1C
    1.9% | 5.2 | 5.0% | 0.1%
Cc1nc2ccccc2c(=O)n1NC(=O)C1CCCCC1
    0.1% | 1.9 | -7.2% | 0.2%
Cc1ccc(C(=O)NCC(=O)N2CCC3(CC2)NCCc2[nH]cnc23)cc1C
    -2.0% | x | -6.3% | -5.2%
COCc1cc(=O)[nH]c(Nc2nc(C)c3ccccc3n2)n1
    0.6% | -8.0 | -9.1% | -7.4%
CC1=CC2=NC(=O)/C(=C\c3cccn3CCOc3ccc(C)c(C)c3)C(=N)N2O1
    u | -9.4 | u | -49.2%
Cc1ccc(-c2nnn(CC(=O)N(Cc3ccco3)C(C(=O)NC3CCCC3)c3cccs3)n2)o1 (configuration not stated)
    -2.0% | -13.6 | -2.4% | -7.6%
CC1CCCCN1CCCNC(=O)c1cc(Br)c(Br)[nH]1 (configuration not stated)
    1.6% | 4.2 | -5.8% | -0.8%
CCc1ccc(NC(=O)CCCN2C(=O)C3CC=CCC3C2=O)cc1 (configuration not stated)
    -1.6% | x | -9.6% | -6.0%
CC(C)CCNC(=O)C1CCN(C(=O)N(C)C)CC1
    6.1% | 7.4 | -2.1% | -13.4%
C/C(=N\OCc1nc2ccccc2c(=O)n1/N=C/c1cc([N+](=O)[O-])ccc1O)c1ccccc1
    -0.3% | -6.2 | -10.4% | -7.4%
Cc1ccc(NC2=C(Cl)C(=O)OC2OC(=O)c2ccco2)cc1 (configuration not stated)
    3.1% | -11.4 | -11.7% | 4.6%
Cn1nnnc1SCC(=O)C(C)(C)C
    -3.1% | 6.3 | -4.2% | -3.0%
O=C(O)C1CC(=O)N(Cc2ccc3c(c2)OCO3)C1 (configuration not stated)
    -2.3% | -5.1 | 1.5% | -2.8%
C/C(=N\NS(=O)(=O)c1ccccc1)c1ccc2c(c1)OCCO2
    5.5% | 4.9 | 0.0% | -14.7%
O=C(Cc1ccccc1)NC(NC(=O)Cc1ccccc1)c1cccc([N+](=O)[O-])c1
    u | 3.7 | -4.1% | 2.9%
CN(C)S(=O)(=O)c1ccc(NC(=O)CN2CCCCCC2)cc1
    -0.1% | x | 29.0% | -2.9%
CCCCNC(=O)c1cc2cc(OC)ccc2[nH]1
    0.6% | -1.1 | -5.6% | -5.7%
CCCCCCNc1cc2n(c(=O)n1)CCc1cc(OC)c(OC)cc1-2
    2.9% | 0.1 | -4.6% | -19.2%
COc1ccc(NC(=O)Nc2ccc3nc(C)c(C)nc3c2)cc1
    -0.8% | 1.0 | -18.4% | -17.5%
Cn1cnc(S(=O)(=O)N2CCN(c3cccc(Cl)c3)CC2)c1
    0.1% | x | -3.3% | -12.6%
COCc1cc(C)nc(OCC(=O)N/N=C\c2cc(C)n(-c3cccc(C(F)(F)F)c3)c2C)c1C#N
    -1.8% | -6.9 | -2.4% | -4.4%
Cc1ccc(Nc2nc(C(=O)N3CCC(C(=O)NCc4ccccc4)CC3)cs2)cc1
    -3.5% | x | -9.2% | 4.7%
O=C(N/N=C/c1ccc([N+](=O)[O-])o1)c1cn(-c2ccccc2)nc1-c1ccccc1
    -0.7% | 4.1 | u | 0.5%

Only part of the results is shown; the hit share may differ from the screen's.
